Assay outcomes: PubChem, several laboratories
Vif TR-FRET: HIV-1 Vif–A3G interaction blockers – biochemical, TR-FRET, GST-Vif 1-94, biotin-A3G peptide, dose response retest, primary screen (AID 1117319); TR-FRET GST-Vif / biotin-A3G peptide binding; higher % means a stronger effect; test concentration not given here; strong numbers were not always called active; 260,000 compounds, 0.57% hits; inhibition, %; hits with a dose series show IC50 in µM;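 active means above the screen mean plus three standard deviations and confirmed in dose response; inconclusive means results disagree or hit not tested in dose response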;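 further: Vif residues 1-94 fused to GST binding biotinylated APOBEC3G peptide 110-148; 0% = full assay without inhibitor and 100% = GST in place of GST-Vif; retest series ran down from 100 µM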
E coli growth: blocks Escherichia coli growth. OD600, 23 h; stronger effect = lower value. OD600 absorbance (test concentration not listed). 330,000 compounds, 0.21% hits. AID 1053175;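 active means OD600 absorbance below the run mean of sample wells minus 3.6 SD, in any replicate, cut at about 0.56 in these data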;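 further: stock transfer was 300 nL into about 60 µL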
FGF22 binding: FGF22 (human) thermal shift binding. recombinant FGF22 thermal shift, SYPRO orange fluorescence; percent of sucrose octasulfate shift, DMSO zero. 340,000 compounds, 1.5% hits. calls only at 9.99 µM;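 active means melting point raised past a set limit in the mean and every replicate; inconclusive means no clear call; three in four hits are not shown here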
Target sequence (Q9HCT0 whole entry, looked up): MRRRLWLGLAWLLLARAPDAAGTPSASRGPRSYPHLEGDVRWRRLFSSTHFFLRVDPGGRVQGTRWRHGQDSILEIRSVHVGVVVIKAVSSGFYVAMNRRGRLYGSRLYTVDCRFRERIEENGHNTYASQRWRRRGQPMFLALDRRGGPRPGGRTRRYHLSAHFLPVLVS
MLL AF4-AF9 inh: blocks AF4 peptide binding to human AF9; P42568; AlphaScreen, biotin-AF4 peptide binding to FLAG-AF9; inhibition, % at 10 µM; 350,000 compounds, 0.47% hits;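 active means every replicate reaching a set inhibition limit, whatever the replicate mean, cut at about 25% in these data; inconclusive means mean inhibition reaches that limit but some replicates miss it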;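 further: 0% = plate neutral control median and 100% = total signal loss; the record names both 10 and 1 µM as test concentration; the first replicate is given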
Ecoli rRNA inh: selective bacterial rRNA inhibition in E. coli. E. coli WT GFP vs humanized-ribosome RFP mutants, fluorescence, 24 h; stronger effect = lower value; DMSO median 0, no signal -100. GFP signal change (wild-type ribosome), % (no concentration beside the values). 350,000 compounds, 1.6% hits. AID 720706;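 active means significant combined selectivity score with lowered wild-type GFP, culture density cut under 30%, mutant RFP and density less affected; inactive means any of these conditions unmet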; further: one replicate is shown; some compounds called inactive have numbers as strong as hits
ALR H2O2 inh: inhibitors of human sulfhydryl oxidase ALR; P55789; purified ALR, DTT oxidation, H2O2 HRP-luminol luminescence; inhibition, % (no concentration beside the values); 290,000 compounds, 3.8% hits; AID 485317;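 active means mean and each replicate at 75% or more; inconclusive means only one of the two met; inactive means neither met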;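 further: stock transfer was 7.5 nL into about 7.5 µL; 0% = neutral wells and 100% = wells with inactivated enzyme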
Target sequence (P55789 whole entry, looked up): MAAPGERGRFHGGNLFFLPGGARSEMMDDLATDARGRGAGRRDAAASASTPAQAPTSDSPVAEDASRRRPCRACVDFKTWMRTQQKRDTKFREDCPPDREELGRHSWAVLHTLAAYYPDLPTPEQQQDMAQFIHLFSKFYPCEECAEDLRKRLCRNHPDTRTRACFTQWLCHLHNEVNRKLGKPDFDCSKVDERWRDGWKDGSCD
HNF4A DNA FP: change in binding of human HNF4 alpha to DNA; P41235; HNF4a-FITC DNA binding, fluorescence polarization, 1 h; activity change, % at 10 µM; 360,000 compounds, 0.3% hits; AID 1224865; in the data active means activity change above about 30%, passing the limit was not always enough;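 further: controls were the assay level and a saturating level of protein; the project sought stronger binding though the title names inhibitors; some compounds called inactive have numbers as strong as hits; positive values seem to mean higher polarization but the record does not say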
Target sequence (P41235 whole entry, looked up): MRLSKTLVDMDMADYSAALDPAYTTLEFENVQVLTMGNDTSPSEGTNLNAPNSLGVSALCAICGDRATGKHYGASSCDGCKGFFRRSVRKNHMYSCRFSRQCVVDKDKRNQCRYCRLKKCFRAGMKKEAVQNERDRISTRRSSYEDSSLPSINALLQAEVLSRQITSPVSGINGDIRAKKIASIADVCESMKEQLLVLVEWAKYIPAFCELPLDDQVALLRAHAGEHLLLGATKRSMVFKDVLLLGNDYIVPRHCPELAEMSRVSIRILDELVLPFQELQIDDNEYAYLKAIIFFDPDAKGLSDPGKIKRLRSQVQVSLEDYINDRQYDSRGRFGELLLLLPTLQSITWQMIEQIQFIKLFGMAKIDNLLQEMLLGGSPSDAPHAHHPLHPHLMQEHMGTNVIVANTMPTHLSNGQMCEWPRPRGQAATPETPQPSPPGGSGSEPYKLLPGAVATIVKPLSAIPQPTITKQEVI
Ecoli rRNA inh OD600: further read-out of Ecoli rRNA inh, marked with its call; OD600 change, %; measured here: OD600 growth;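 optical density of the mix in the first replicate; 0 = DMSO median and -100 = no signal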
Ecoli rRNA inh RFP: further read-out of Ecoli rRNA inh, marked with its call; RFP signal change, %; measured here: RFP humanized mutant strains;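 first replicate; 0 = DMSO median and -100 = no signal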
* = called active by the depositor; i = inactive; ? = inconclusive; / = no result given; & = joins results of further samples. These rows are one share of the data; the hit share may differ from the screen's.

SMILES	Vif TR-FRET	E coli growth	FGF22 binding	MLL AF4-AF9 inh	Ecoli rRNA inh	Ecoli rRNA inh OD600	Ecoli rRNA inh RFP	ALR H2O2 inh	HNF4A DNA FP
Cc1csc(NC(=O)CSc2ncnc3ccccc23)n1	3%	0.72	i	-3.4	-1	8	-0.8	75	7.9
CC(=O)Nc1nc(-c2ccc3c(c2)CC(C)N3C(=O)C2CC2)c(C)s1 (configuration not stated)	/	0.66	i	6.6	1	-3	1.6	99*	1.5
CCC(C)n1c(S(=O)(=O)O)nc2ccccc21 (configuration not stated)	-1%	0.71	/	/	/	/	/	6	0.7
CC(C)c1ccc(NC(=O)C[C@H]2CC[C@H]3[C@@H](COc4ccc(NC(=O)c5ccno5)cc4C(=O)N3C)O2)cc1	/	/	i	3.0	-4	-32	21	/	/
Cc1ccc(S(=O)(=O)N2CCCOC2)cc1	3%	0.68	i	-1.8	17	2	0.8	-3	0.2
Cn1nnnc1SCC(=O)Nc1ccccc1N1CCOCC1	-6%	0.75	/	/	/	/	/	1	2.0
Cc1ccc(-c2ccc3c(c2)O[C@H](CN(C)CC2CC2)[C@H](C)CN([C@@H](C)CO)S3(=O)=O)cc1	/	/	i	6.7	2	-6	6.6	/	/
O=C(CSc1nnc2ccccn12)Nc1ccccc1[N+](=O)[O-]	0%	/	i	-0.1	/	/	/	/	-2.1
Cc1cc(C)cc(NC(=O)Cn2nnc(C(=O)NCc3ccc(F)cc3)c2N)c1	11%	0.67	i	-2.3	6	8	1.2	0	0.0
Cc1ccc(C)c(OCCNc2ccc([N+](=O)[O-])cn2)c1	-1%	0.66	i	-0.9	6	3	3.0	1	0.6
CO[C@@H]1CN(C)C(=O)c2ccc(NC(=O)C3CCOCC3)cc2OC[C@H](C)NC[C@@H]1C	/	/	i	0.6	1	4	-1.9	/	/
C=CCOn1c(=O)c(C)[n+]([O-])c2ccccc21	12%	0.79	/	/	/	/	/	-6	2.5
OCc1cc(Br)ccc1OCc1nc2ccccc2s1	-27%	0.71	/	/	1	-3	2.4	4	-0.5
CC(=O)c1ccc(N2CCN(C(=O)c3cccc(Oc4ccccc4)c3)CC2)cc1	/	0.72	i	0.5	-26	-30	-0.8	-4	-0.5
O=C(NCCOc1ccccc1)c1ccc2c(c1)OCO2	7%	0.67	/	/	/	/	/	-6	1.0
Cc1[nH]n(-c2ccccc2)c(=O)c1-c1ccccc1	13%	0.68	/	/	/	/	/	70	-0.8
O=c1ccn(CCc2c[nH]c3ccccc23)c2c1CCCC2	-10%	0.71	i	-0.3	-10	-2	-2.4	2	0.7
O=C1C(C=NCc2ccccn2)=C(O)c2ccccc21	2%	0.68	i	-24	5	1	1.0	-2	0.3
CCN(CC)c1ccc(/C=N/N(c2ccccc2)c2ccccc2)c(O)c1	19%	/	/	/	/	/	/	0	6.4
C[C@@H]1CCCCO[C@@H](CN(C)C(=O)Nc2ccc(C(F)(F)F)cc2)[C@H](C)CN([C@H](C)CO)C(=O)c2cc(NS(=O)(=O)c3ccccc3)ccc2O1	/	/	i	-0.4	5	3	2.4	/	/
CN(Cc1ccccc1)C(=O)CN(C)S(=O)(=O)c1ccc(F)cc1	0%	0.66	i	-10	6	3	2.2	-5	0.7
NC(=O)c1c(NC(=O)CN2CCOCC2)sc2c1CCC2	-5%	0.79	/	/	/	/	/	-20	-1.8
CCCCc1c(O)nc(N2CCN(Cc3ccccc3)CC2)[nH]c1=O	-3%	0.77	/	/	/	/	/	-3	1.8
COc1ccc(NC(=O)CSc2nccn2Cc2ccco2)cc1	-7%	0.7	i	-0.1	9	3	1.7	99*	-1.1
CSc1nc(N2CCOCC2)nc2ccc(C)cc12	/	0.68	i	-71	/	/	/	/	0.7

Reprinted from the listing for reference:
SMILES	Vif TR-FRET	E coli growth	FGF22 binding	MLL AF4-AF9 inh	Ecoli rRNA inh	Ecoli rRNA inh OD600	Ecoli rRNA inh RFP	ALR H2O2 inh	HNF4A DNA FP
CCCCc1c(O)nc(N2CCN(Cc3ccccc3)CC2)[nH]c1=O	-3%	0.77	/	/	/	/	/	-3	1.8
COc1ccc(NC(=O)CSc2nccn2Cc2ccco2)cc1	-7%	0.7	i	-0.1	9	3	1.7	99*	-1.1
CSc1nc(N2CCOCC2)nc2ccc(C)cc12	/	0.68	i	-71	/	/	/	/	0.7

(continued)
SMILES	Vif TR-FRET	E coli growth	FGF22 binding	MLL AF4-AF9 inh	Ecoli rRNA inh	Ecoli rRNA inh OD600	Ecoli rRNA inh RFP	ALR H2O2 inh	HNF4A DNA FP
Cc1ccc2c(c1)C1OCCC1C1N2C(=O)C2C(C(=O)O)C3C=CC21O3 (configuration not stated)	19%	0.66	/	-1.9	18	13	0.8	-7	-6.5
CCNC(=S)Nc1ccc(Cl)cc1	-4%	0.67	i	2.1	2	-4	-7.3	-4	2.9
Nc1ccc(Oc2ccc(F)cc2)nc1	32%	/	i	2.9	/	/	/	-3	-3.2
CCOC(=O)c1ccc(CNC(=O)CSc2nc(NC(=O)c3ccccc3)c3c(C)c(C)oc3n2)cc1	-6%	0.74	/	/	/	/	/	-3	4.9
CCOC(=O)c1cnc2c(C)c(-c3ccccc3)[nH]n2c1=O	-5%	0.72	/	/	/	/	/	3	0.1
CC1(C)CC(=O)C/C(=N\NC(=O)Cc2ccccc2)C1	0%	/	/	/	/	/	/	8	-0.6
O=C(C[C@H]1C[C@H]2c3cc(NC(=O)NC4CCCCC4)ccc3O[C@H]2[C@H](CO)O1)NCC1CC1	/	/	i	0.2	0	-2	-0.7	/	/
CN(CC(=O)Nc1cccc(F)c1)C(=O)/C=C/c1ccc2ccccc2n1	/	0.71	i	0.2	1	4	3.0	3	3.4
O=C(OCn1nnc2ccccc2c1=O)c1cc(-c2ccccc2Cl)nc2ccccc12	/	0.71	i	0.4	4	4	-0.2	0	5.8
Cc1cc(N2CCOCC2)ncc1[N+](=O)[O-]	21%	0.68	/	/	/	/	/	-13	-0.8
CCCN1C[C@H](C)[C@@H](OC)CN(C)C(=O)c2cc(NC(=O)c3cnccn3)ccc2OC[C@@H]1C	/	/	i	-1.3	1	0	-2.3	/	/
CCCCS(=O)(=O)/C=C\C1C2C=CC(C2)C1S(=O)(=O)CCCC (configuration not stated)	3%	0.73	/	/	/	/	/	-4	-2.7
CC1CCN(C(=S)NC(=O)C2CCCCC2)CC1	-4%	0.75	/	/	/	/	/	-14	1.6
C/C(=N/NC(=O)Cc1cc(=O)[nH][nH]1)c1ccc([N+](=O)[O-])cc1	?	/	/	/	/	/	/	15	0.1
COc1cccc(S(=O)(=O)N[C@H]2CC[C@H](CCNC(=O)Cc3ccncc3)O[C@@H]2CO)c1	/	/	i	1.1	0	4	0.1	/	/
C[C@@H]1CN([C@H](C)CO)C(=O)c2cc(C3=CCCC3)cnc2O[C@H]1CN(C)C(=O)c1ccccn1	/	/	i	-2.3	2	-5	-1.1	/	/
C[C@@H]1CN([C@@H](C)CO)C(=O)c2cc(NC(=O)Nc3cccc4ccccc34)ccc2O[C@@H]1CN(C)S(=O)(=O)c1ccccc1	/	/	i	2.7	1	-2	2.0	/	/
CCN(CC)S(=O)(=O)c1ccc(N2CCN(C)CC2)c(NC(=O)c2cc(=O)c3ccccc3o2)c1	-5%	0.64	i	0.3	5	7	-0.5	1	4.2
CC(C)=N/N=C1/NC(=O)C(c2ccccc2)S1 (configuration not stated)	0%	/	i	4.5	-11	-9	-0.4	/	2.0
O=C(NCCCNc1ccc(C(F)(F)F)cc1[N+](=O)[O-])c1cc(F)c(F)cc1Cl	7%	0.76	/	/	/	/	/	-49	1.0
C[C@H](CO)N1C[C@H](C)[C@H](CN(C)C(=O)c2ccc(F)cc2)Oc2cc(-c3cccc(C#N)c3)ccc2S1(=O)=O	/	/	i	0.6	-9	-5	4.8	/	/
COc1ccc(C(NC=O)c2cc(OC)c(OC)cc2Br)cc1OC (configuration not stated)	/	0.69	i	-8.7	4	6	-0.4	-13	2.7
Cc1noc(C)c1NC(=O)Nc1cccc2c1O[C@H](CN(C)S(C)(=O)=O)[C@@H](C)CN([C@H](C)CO)C2=O	/	/	i	0.2&1.7	3&8	28&19	-1.9&-0.2	-4	0.7
O=C1COc2ccc(C(=O)COC(=O)c3cc(S(=O)(=O)NCc4ccccc4)ccc3O)cc2N1	-1%	0.73	i	-1.1	10	0	3.3	0	6.8
O=C(COC(=O)c1cc(S(=O)(=O)N2CCCCC2)ccc1N1CCOCC1)NC1CCCCC1	5%	0.75	/	/	/	/	/	0	2.7
SMILES	Vif TR-FRET	E coli growth	FGF22 binding	MLL AF4-AF9 inh	Ecoli rRNA inh	Ecoli rRNA inh OD600	Ecoli rRNA inh RFP	ALR H2O2 inh	HNF4A DNA FP
COc1cc(CO)cc(Br)c1OCC(=O)N1CCCCC1	-2%	0.72	/	/	/	/	/	4	0.9
Cc1ccccc1NC(=O)Cc1nc(COC(=O)CCOc2ccccc2)cs1	/	0.71	i	-0.8	3	-1	2.6	-1	2.7
CC(=O)Nc1ccc(C=C(C(C)=O)C(C)=O)cc1	-7%	0.69	i	-4.0	/	/	/	3	5.5
Cc1noc(C)c1NC(=O)Nc1ccc2c(c1)C(=O)N([C@@H](C)CO)C[C@@H](C)[C@@H](CN(C)C(=O)Nc1ccc3c(c1)OCO3)OCCCC[C@@H](C)O2	/	/	i	6.4	-1	4	-0.6	/	/
CCc1cc2c(=O)n(Cc3ccccc3)c(SC3CCOC3=O)nc2s1 (configuration not stated)	-1%	0.71	i	3.9	-24*	-14*	-2.8*	/	4.5
C[C@H](CO)N1C[C@H](C)[C@@H](CN(C)C(=O)C2CCC2)Oc2ncc(/C=C/c3ccccc3)cc2C1=O	/	/	i	6.3	-5	-18	17	/	/
Cc1ccc(S(=O)(=O)N2CCCCC2)cc1C(=O)OC(C)C(=O)NC1CCCCC1C (configuration not stated)	2%	0.66	i	0.1	-10	-29	-1.3	/	0.8
CN(CC(=O)Nc1ccc(F)cc1)C(=O)c1cccc(NS(=O)(=O)c2ccccc2)c1	10%	0.7	i	-0.9	/	/	/	-1	-4.8
CC(C)C(NC(=O)CCNC(=O)c1ccc([N+](=O)[O-])cc1)c1nc2ccccc2[nH]1 (configuration not stated)	-7%	0.71	i	-3.2	-5	6	-1.1	-5	-2.3
CCOC(=O)C1=C[C@@H](C(C)(C)C)N(S(=O)(=O)c2ccc(OC)cc2)[C@H]1c1ccccc1	/	/	i	-4.0	7	14	-3.3	/	-2.3
CCN(CC)C(=O)CSC1=N/C(=C/c2ccco2)C(=O)N1c1ccc(OC)c(Cl)c1	/	/	i	9.2	7	0	0.3	98*	11
CCCCC1S/C(=N/N=C/c2cccs2)NC1=O (configuration not stated)	29%	/	/	/	/	/	/	-2	3.6
COC(=O)[C@@]12CCCCN1[C@H](c1ccc(-c3ccc4c(c3)OCO4)cc1)[C@H]1C(=O)N(C)C(=O)[C@H]12	/	/	i	1.3	5	2	-10	-26	1.2
Cc1ccc(CSc2nnc(C(F)(F)F)n2Cc2ccc(F)cc2)cc1	28%	0.71	i	7.1	-27*	-18*	-10*	-5	-1.6
C[C@@H]1CN([C@@H](C)CO)C(=O)c2cccc(NS(C)(=O)=O)c2O[C@@H]1CN(C)S(=O)(=O)c1ccccc1	/	/	i	-6.3	4	14	-1.2	/	/
O=C(CSc1ccccc1F)NC(=O)c1ccc(Cl)cc1	-11%	0.68	i	0.2	1	13	0.3	1	-0.7
O=C(COC(=O)c1ccc(S(=O)(=O)Nc2ccccc2)cc1)NCCN1C(=O)CSC1=O	2%&-9%	0.68	/	/	/	/	/	-4	-2.1
CCOCCOC(=O)c1ccc(-n2cnc(C)n2)nc1	-3%	0.69	i	0.6	6	4	-2.3	31	0.2
